Bioassay records from PubChem BioAssay.
PolyA inhibitor = polyadenylation inhibitors in yeast reporter cells, primary screen, luminescence, S. cerevisiae; S. cerevisiae SKY197-pL101 polyadenylation reporter, beta-gal luminescence; efflux-impaired pdr1/pdr3 knockout yeast; score 100 = 6 SD above DMSO; calls only at 12 µM; 0.02% of 300,000 active;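 active = lowest replicate activity score at least 50, where 100 means six control SD above control mean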;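 note: yeast exposed to compound for 9 h at 30 °C; higher score means more reporter readthrough which indicates perturbed polyadenylation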
TRPC4 potent = positive allosteric modulators of TRPC4, primary screen, cell-based, mouse TRPC4beta, HEK293 mu-opioid, Fluo-4 calcium | B-score at 10 µM | DAMGO EC20, Fluo-4 Ca2+ flux; stronger effect = higher value | 0.42% of 310,000 active;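 active = B-score of calcium response area above 5 SD of library B-scores, with initial fluorescence ratio within 5 SD of library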;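 note: B-score of integrated fluorescence ratio over time as area under calcium response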
KCNQ1 block = inhibitors of human KCNQ1 channel, primary screen, cell-based, thallium flux, high-throughput | B-score at 10 µM | CHO-K1 KCNQ1, FluxOR thallium flux fluorescence; stronger effect = higher value | Potassium voltage-gated channel subfamily KQT member 1 (Homo sapiens), P51787 | 1.3% of 310,000 active;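 active = compounds whose thallium flux B-score, printed positive for inhibition, exceeds three library SD while starting fluorescence stays within three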;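 note: channel opened by potassium depolarization with thallium stimulus after 20 min compound exposure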
TRPC4 agonist = activators of mouse TRPC4 channel, primary screen, Fluo4 calcium, HEK293 TRPC4beta/mu-opioid cells. Short transient receptor potential channel 4 (Mus musculus), Q9QUQ5. Fluo4 calcium fluorescence; stronger effect = higher value. B-score at 10 µM. 0.49% of 310,000 active. AID 2237, 2010;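 active = B-score above 5 SD of library B-scores, and initial fluorescence ratio not above library mean plus 5 SD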;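 note: positive B-score marks a calcium rise read as TRPC4 activation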
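Assay system: HEK293 stable line with TRPC4beta plus mu-opioid receptor. Times: dye 45 min RT, read 110 s. Measured by: kinetic Fluo4 calcium fluorescence. Measure: B score of integrated ratio. Controls: assay buffer as low control, maximal DAMGO as high control.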
TRPC4 block = inhibitors of mouse TRPC4 channel, primary screen, Fluo4 calcium, HEK293 TRPC4beta/mu-opioid cells | Short transient receptor potential channel 4 (Mus musculus), Q9QUQ5 | DAMGO-evoked Fluo4 calcium flux; stronger effect = lower value | B-score at 10 µM | 0.39% of 300,000 active | AID 2247, 2010;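 active = B-score over 3 SD under the library average, no early fluorescence shift, positive overall ratio signal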
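Assay system: HEK293 cells with stable TRPC4beta plus mu-opioid receptor expression. Dosing: single dose. Measured by: Fluo4 Ca2+ flux fluorescence. Also added: DAMGO in two steps, submaximal then maximal. Read-out: B score from integrated Fluo4 fluorescence ratio.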
KCNK3 block = human KCNK3 channel inhibitors, primary screen, CHO cells, FluxOR thallium flux, B-score; B-score at 10 µM; FluxOR fluorescence; stronger effect = lower value; AID 602410, 2012; 0.84% of 340,000 active;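 active = B-score under library mean minus 4 SD, starting fluorescence ratio at most library mean plus 5 SD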;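 note: more negative B-score means stronger inhibition of thallium flux through KCNK3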
Target sequence (O14649 whole entry, looked up): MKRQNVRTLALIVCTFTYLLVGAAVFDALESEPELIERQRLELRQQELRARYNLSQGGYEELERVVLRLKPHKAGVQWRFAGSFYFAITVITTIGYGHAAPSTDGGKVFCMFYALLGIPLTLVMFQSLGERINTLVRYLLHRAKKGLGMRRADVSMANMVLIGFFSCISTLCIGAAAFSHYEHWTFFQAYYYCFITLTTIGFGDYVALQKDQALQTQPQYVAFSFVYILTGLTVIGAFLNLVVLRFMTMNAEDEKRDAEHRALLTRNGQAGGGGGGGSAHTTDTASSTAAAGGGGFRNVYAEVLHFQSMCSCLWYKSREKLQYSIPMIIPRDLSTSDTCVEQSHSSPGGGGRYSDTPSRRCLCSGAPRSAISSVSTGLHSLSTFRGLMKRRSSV
Calls only; i = inactive; nt = not tested or not shown. These rows are one share of the data; rates above refer to the full screens.

Letters – A = PolyA inhibitor; B = TRPC4 potent; C = KCNQ1 block; D = TRPC4 agonist; E = TRPC4 block; F = KCNK3 block
1: C[C@]12CCC3C(CC[C@@H]4CC(=O)CC[C@]34C)C1CC[C@@H]2O (some centres undefined)
  A = nt | B = nt | C = nt | D = nt | E = nt | F = i

2: O=Cc1cn(Cc2ccccc2[N+](=O)[O-])c2ccccc12
  A = i | B = i | C = i | D = i | E = i | F = i

3: C[C@]12CCC3[C@@H](CC[C@@H]4C[C@H](O)CC[C@]34C)[C@@H]1CCC2=O (some centres undefined)
  A = nt | B = nt | C = nt | D = nt | E = nt | F = i

4: Cc1ccc(-c2nc3ccc(C)cn3c2CC(=O)N(C)C)cc1
  A = i | B = i | C = i | D = i | E = i | F = i

5: CC(C)OC1CCCC(O)C1CC(=O)O (centres undefined)
  A = i | B = i | C = i | D = i | E = i | F = i

6: CCn1cc(C(=O)O)c(=O)c2ccc(C)nc21
  A = i | B = i | C = i | D = i | E = i | F = i

7: CCOC(=O)c1cc(CC)sc1/N=C/c1c(O)[nH]c(=S)[nH]c1=O
  A = i | B = i | C = i | D = i | E = i | F = i

8: Clc1ccc(CO/N=C(\Cn2ccnc2)c2ccc(Cl)cc2Cl)c(Cl)c1
  A = i | B = i | C = i | D = i | E = i | F = nt

9: COC(=O)C1=C(C)NC(C)=C(C(=O)OC)C1c1ccccc1[N+](=O)[O-]
  A = i | B = i | C = i | D = i | E = i | F = i

10: CC(C)[C@]12O[C@H]1[C@@H]1O[C@]13[C@]1(O[C@H]1C[C@H]1C4=C(CC[C@@]13C)C(=O)OC4)[C@@H]2O
  A = i | B = i | C = i | D = i | E = i | F = nt

11: S=C1NCCN1
  A = i | B = i | C = i | D = i | E = i | F = i

12: Cc1cccc(CNCCc2c[nH]c3ccccc23)c1
  A = i | B = i | C = i | D = i | E = i | F = i

A draw from above in order of count of non-hydrogen atoms, smallest number first:
Letters – A = PolyA inhibitor; B = TRPC4 potent; C = KCNQ1 block; D = TRPC4 agonist; E = TRPC4 block; F = KCNK3 block
11: S=C1NCCN1
  A = i | B = i | C = i | D = i | E = i | F = i

6: CCn1cc(C(=O)O)c(=O)c2ccc(C)nc21
  A = i | B = i | C = i | D = i | E = i | F = i

12: Cc1cccc(CNCCc2c[nH]c3ccccc23)c1
  A = i | B = i | C = i | D = i | E = i | F = i

Two entries from above, reformatted:
(3) C[C@]12CCC3[C@@H](CC[C@@H]4C[C@H](O)CC[C@]34C)[C@@H]1CCC2=O (some centres undefined)
  PolyA inhibitor = nt
  TRPC4 potent = nt
  KCNQ1 block = nt
  TRPC4 agonist = nt
  TRPC4 block = nt
  KCNK3 block = i
(4) Cc1ccc(-c2nc3ccc(C)cn3c2CC(=O)N(C)C)cc1
  PolyA inhibitor = i
  TRPC4 potent = i
  KCNQ1 block = i
  TRPC4 agonist = i
  TRPC4 block = i
  KCNK3 block = i

Screen by screen, quoted from above:
PolyA inhibitor, nos. 4 to 9, in order: i, i, i, i, i, i
KCNK3 block, nos. 4 to 9, in order: i, i, i, i, nt, i
TRPC4 agonist, nos. 4 to 9, in order: i, i, i, i, i, i
